High-throughput results (PubChem)
Mtb bLac sens: beta-lactam sensitization of Mtb H37Rv, H37Rv; 330,000 tested, 0.27% active; inhibition, % at 25 µM; M. tuberculosis H37Rv growth with meropenem, percent inhibition; hits of this screen are not shown here;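 active = about 74% or more and at least 40 points above the plate without the antibiotic, then above 30% in a dose series; inconclusive = first-round hits that could not be retested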;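 also: growth measured after seven days incubation then overnight dye step; 0% = bacteria only wells and 100% = bacteria with antibiotic; twin plates without the antibiotic show which effects depend on it; some results filed as inactive read as strong as hits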
RecA splice inh: Mtb RecA intein splicing inhibitors, primary screen, biochemical, fluorescence, HTS; cell-free RecA intein splicing; AID 2221, 2009; 290,000 tested, 0.75% active; inhibition, %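 (about 9 µM by stock and volumes)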; Protein RecA (Mycobacterium tuberculosis (strain ATCC 25618 / H37Rv)), P9WHJ3; in the data active = inhibition above about 30%; inconclusive = no clear call, values can overlap the other calls;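 also: 0% = vehicle wells and 100% = reference inhibitor control wells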
Target sequence (P9WHJ3 whole entry, looked up, canonical isoform): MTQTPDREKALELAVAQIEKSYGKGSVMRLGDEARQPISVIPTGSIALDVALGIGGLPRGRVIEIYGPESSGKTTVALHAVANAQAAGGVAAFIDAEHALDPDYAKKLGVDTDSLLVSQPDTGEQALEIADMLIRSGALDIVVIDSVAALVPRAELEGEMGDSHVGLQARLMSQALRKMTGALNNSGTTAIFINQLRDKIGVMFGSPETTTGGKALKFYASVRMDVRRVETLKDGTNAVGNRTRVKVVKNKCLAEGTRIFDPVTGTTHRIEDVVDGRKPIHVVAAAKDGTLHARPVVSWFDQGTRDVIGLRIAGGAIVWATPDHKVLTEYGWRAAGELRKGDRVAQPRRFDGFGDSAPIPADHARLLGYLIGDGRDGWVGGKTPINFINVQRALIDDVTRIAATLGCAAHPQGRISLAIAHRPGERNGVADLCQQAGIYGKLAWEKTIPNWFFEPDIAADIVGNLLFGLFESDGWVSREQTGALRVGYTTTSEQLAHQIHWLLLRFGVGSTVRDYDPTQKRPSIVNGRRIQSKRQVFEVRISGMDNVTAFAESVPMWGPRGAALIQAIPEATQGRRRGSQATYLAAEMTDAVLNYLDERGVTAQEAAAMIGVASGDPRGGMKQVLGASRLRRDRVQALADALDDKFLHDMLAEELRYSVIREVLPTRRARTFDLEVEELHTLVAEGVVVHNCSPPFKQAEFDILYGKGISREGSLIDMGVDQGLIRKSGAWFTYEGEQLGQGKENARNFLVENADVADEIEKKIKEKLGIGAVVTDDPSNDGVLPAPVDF
Mtb H37Rv: M. tuberculosis H37Rv growth inhibitors, H37Rv strain (AID 1626); M. tuberculosis H37Rv growth inhibition; higher % means a stronger effect; inhibition, % at 10 µM, or IC50 in µM where a hit was titrated; 220,000 tested, 0.95% active;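 active = confirmed in a dose series; inconclusive = inhibition above 80% but not taken into the dose series; inactive = below 80% or under 30% at every dose of the series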;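 also: bacteria incubated seven days before Alamar blue readout; 0% = bacteria only wells and 100% = bacteria with antibiotic wells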
Arbovirus inh: antivirals against arbovirus infection, primary screen, cell-based, full library, 10K replicate subset; 200,000 tested, 0.37% active; AID 1251, 2008; inhibition, % at 10 µM; arbovirus infection cell-based antiviral screen;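 active = inhibition from about 30%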;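 also: bluetongue infection of BSR cells; cell survival read as ATP light after 72 h; 0% = infected wells without compound and 100% = uninfected wells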
YopH PTP inh: YopH tyrosine phosphatase inhibitors, primary screen, biochemical, fluorescence Ex485/Em525. YopH tyrosine phosphatase [Yersinia enterocolitica]. inhibition, %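 (about 10 µM by stock and volumes)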. 140,000 tested, 0.16% active. AID 898, 2007;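 active = inhibition of 50% or more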;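 also: controls were vehicle for no effect and minimum signal wells for full effect; inactives centre near -20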
Arbovirus inh repeat: recorded beside Arbovirus inh, whose call it bears; inhibition, %; measured here: 10K subset replicate screen; many hits read low in the repeat;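 first of two repeat runs on a subset; 0% = infected and 100% = uninfected wells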
* marks the source's active call; other numbers are inactive results; ? = inconclusive; . = not tested or not shown. The list is partial; count on the stated rates, not on these rows.

SMILES	Mtb bLac sens	RecA splice inh	Mtb H37Rv	Arbovirus inh	YopH PTP inh	others
COc1ccc(OC)c(CC(=O)N2CCc3cc(OC)c(OC)cc3C2)c1	-4.2	2.4	.	.	.
COc1cc(NC(=O)c2cc(Br)cc(C)c2OC)ccc1NC(=O)C(C)C	9.9	2.2	5.4%	-4.2	.
CCOC(=O)C1CCCN(C(=O)C2CCN(S(=O)(=O)c3ccc4ccccc4c3)CC2)C1 (stereo unspecified)	-8.8	5.2	.	.	.
CCCOc1ccccc1N/C(N)=N/c1nc(C)cc(C)n1	-0.9	.	-1.0%	4.0	.
Cc1ccnc2nc(C(=O)NCc3ccccc3)nn12	8.8	0.0	2.4%	-0.9	.
O=S(=O)(O)c1ccc(N2N=C(c3ccccc3)CC2c2ccccc2)cc1 (stereo unspecified)	-5.7	-160.2	-4.5%	11.1	.
Cc1ccc(C(=O)Nc2cccnc2)cc1S(=O)(=O)N1CCCCCC1	-7.4	0.1	.	.	.
CSc1nc(NCC(C)C)nc(N2CCOCC2)n1	-1.1	6.8	3.9%	-4.5	-10.9
CCNC(=O)NCCNC(=O)c1cc(OCC(F)(F)F)ccc1OCC(F)(F)F	3.5	3.3	8.0%	-0.1	.
COCc1cc(=O)[nH]c(/N=C(\N)Nc2cccc(Cl)c2)n1	-7.9	-0.8	5.3%	7.1	.
C/C(N)=C(/C#N)C(=O)COc1ncnc2ccc(Br)cc12	-8.2	-0.2	-13.4%	1.5	-40.8
COc1ccccc1N1C(=O)C2C3C=CC(C3)C2C1=O (stereo unspecified)	-11.6	1.4	-9.3%	-1.3	-44.2
CC1COc2ccccc2N1C(=O)c1ccc(Cl)nc1 (stereo unspecified)	1.4	0.1	10.1%	2.2	.
CN1Cc2c(N3CCOCC3)nc3sc(C(=O)c4ccc(Br)cc4)c(N)c3c2CC1(C)C	98.5	1.6	5.56µM*	.	.
C=CCN(c1ccccc1)S(=O)(=O)c1cccc(C(=O)Nc2nc3ccccc3[nH]2)c1	7.9	-6.0	8.9%	-19.7	-37.8
O=C(Cn1nc(-c2ccccc2)nc1-c1ccccc1)N1CCOCC1	8.0	0.5	-4.2%	-6.1	-48.5
C=C(C)Cn1c(=O)c2c(nc3n2CCCN3Cc2ccccc2)n(C)c1=O	3.9	5.9	.	.	.
Nc1cccc2c1C(=O)N(CCOc1ccc(F)cc1)C2=O	-1.1	-164.2	.	.	.
CN(C)S(=O)(=O)N(CCN1CCOCC1)Cc1ccccc1F	-2.5	-5.2	21.5%	-1.4	-26.8
O=C(NC1CCN(Cc2ccccc2)CC1)c1ccccc1F	-2.4	-0.1	0.8%	-0.7	-17.4	Arbovirus inh repeat=-1.6
Cc1ccc(F)cc1NC(=O)c1ccc(NS(=O)(=O)c2ccc(Br)s2)cc1	8.2	-8.8	2.1%	-4.3	-32.4
Cc1cccc(C(=O)OCC(=O)c2c(N)n(CC(C)C)c(=O)n(C)c2=O)c1[N+](=O)[O-]	-12.4	-1.0	.	.	.
O=C(NCCCN1CCCC1)C1CCN(C(=O)c2cc3sccc3n2Cc2ccc(F)cc2)CC1	1.3	3.2	-5.2%	12.9	-30.3
CN(C)CCCNS(=O)(=O)c1cc(Cl)ccc1Cl	-5.0	-2.0	-2.8%	4.0	-3.3
Cc1oc(-c2ccc(Cl)cc2)nc1CN1CCC(C(=O)NCCCN2CCCC2=O)CC1	0.4	1.1	0.6%	-1.7	-31.4	Arbovirus inh repeat=3.7
COc1ccc(C2C(C(C)=O)=C(O)C(=O)N2CCO)c(OC)c1 (stereo unspecified)	-1.5	-0.7	-4.9%	2.3	-38.1
Cc1ccc(N/N=C2\CCS(=O)(=O)c3sccc32)cc1	61.4	-3.1	-1.6%	-25.7	.
CC(C)C1CC(O)(C2(O)CCCCC2)ON1 (stereo unspecified)	-13.8	-3.4	-2.8%	-2.3	-20.3
COc1cc(CNC2CCCCCC2)cc(OC)c1OC	-1.1	-1.8	-13.2%	5.3	-24.8
Oc1ccc2c3c1O[C@H]1c4oc5ccccc5c4C[C@@]4(O)[C@@H](C2)N(CC2CC2)CC[C@]314	-9.7	2.0	-4.6%	.	.
Cc1ccc(-n2c(C)nc3cc(Cl)ccc3c2=O)nc1	2.5	4.0	.	.	.
CCN1CCCC1CNC(=O)c1cc(NC(C)=O)c(N(C)C)cc1OC (stereo unspecified)	2.6	3.6	-11.2%	0.1	-28.0
Cc1ccc(C)c(NC(=O)C2CCCN2C(=O)OC(C)(C)C)c1 (stereo unspecified)	3.9	1.5	-1.2%	-0.8	-7.1
Fc1ccc(N2CCN(c3ncnc4c3nnn4Cc3ccccc3Cl)CC2)cc1	2.3	2.0	-1.3%	-0.7	-28.8
O=C(NC1CCc2ccccc21)C1CCN(S(=O)(=O)c2ccc(Cl)cc2)CC1 (stereo unspecified)	-4.4	-1.0	-0.5%	2.5	12.0
CC(=O)/C(C#N)=C1\NC(=O)C(Cc2cc(Cl)ccc2Cl)S1 (stereo unspecified)	6.1	4.8	7.2%	.	.
Cc1ccc(CN=C(N)Nc2nc(C)cc(C)n2)cc1	5.5	4.0	-18.3%	-28.6	.
COCc1ccc(C(=O)N2CCCC(C(=O)c3ccc(Cl)cc3C)C2)o1 (stereo unspecified)	-7.3	3.0	.	.	.
COc1ccc(Oc2coc3cc(OC(=O)c4cncc(Br)c4)ccc3c2=O)cc1	-7.6	.	-12.3%	2.4	-46.4
Cc1cccc(CCNC(=O)c2cccc(NC3=NC4CS(=O)(=O)CC4S3)c2)c1 (stereo unspecified)	2.2	3.7	.	.	.
O=C(NCCc1nnc2ccc(NCc3cccnc3)nn12)c1ccccc1F	-5.0	-0.8	6.5%	0.3	.
CCO[C@@H]1OC(C(=O)NCc2ccccc2)=C[C@H](C2CCCCC2)[C@H]1CCCO	4.1	7.0	-4.9%	-9.1	.
Cc1cc(NC(=O)CCN2C(=O)C3C4CCC(C4)C3C2=O)cc(C)c1Br (stereo unspecified)	1.5	1.1	3.2%	-7.0	-44.7
COc1ccccc1OCc1ccc(C(=O)N(C)c2ccccc2)o1	-4.6	1.5	.	.	.
O=C(NNS(=O)(=O)c1ccc(CCCl)cc1)C(O)(c1ccccc1)c1ccccc1	-3.7	-11.9	-1.6%	-9.5	2.9
CCOc1ccc2[nH]c(=O)c(C(c3nnnn3Cc3ccco3)N3CCN(C)CC3)cc2c1 (stereo unspecified)	-5.4	-3.4	-3.5%	6.5	.
CCOC(=O)C1=C(N)OC2=C(C(=O)CCC2)C12C(=O)Nc1ccccc12 (stereo unspecified)	-3.4	1.2	-4.9%	-3.7	15.4
Cc1occc1-c1nnc(SCC(=O)NCc2ccc3c(c2)OCO3)n1CC(C)C	0.5	0.4	-6.0%	-0.9	-31.7
COc1cc(/C=N/Nc2nn3cnnc3c3ccccc23)cc(OC)c1OC	4.8	-6.8	4.0%	-0.3	-32.1
COCC(C)NC(=O)c1cc(-c2ccc(OC)c(OC)c2)on1 (stereo unspecified)	-1.3	0.7	-0.6%	5.2	4.7
CCc1ccc(-c2ccc(C(=O)O)cc2)nc1	14.5	-2.7	-5.1%	12.3	-0.2
CC(=O)N(Cc1ccc2c(c1)OCO2)C1CC(=O)N(CCc2ccccc2)C1=O (stereo unspecified)	-8.5	-2.1	-5.2%	4.2	-6.3
Cc1nc2cc(Cl)c(Cl)cc2n1CCCO	-11.4	-0.5	1.1%	.	.
COC(=O)c1sccc1NC(=O)NC1CCCCC1	-6.4	1.8	2.1%	-9.6	.
Cc1ccc(-c2ccc(/C=N/N=C3/NC(=O)C(CC(=O)O)S3)o2)c([N+](=O)[O-])c1 (stereo unspecified)	-3.4	47.6*	-2.6%	10.9	0.0
CCC(C)(C)C1CCC2(CC1)NC(=O)N(CC(=O)N1CCN(S(=O)(=O)c3cc(C)ccc3C)CC1)C2=O (stereo unspecified)	51.2	0.9	.	.	.
Cc1cccc(N/N=C/c2c(O)[nH]c(=S)[nH]c2=O)c1	-2.3	-0.3	0.2%	.	.
COc1cc(O)c(C(CC(=O)N2CCOCC2)c2ccc(N(C)C)cc2)c(OC)c1 (stereo unspecified)	-0.2	-1.1	-8.1%	.	.
Cc1ccc2nc(SCC(=O)N3CCCCC3)nc(=O)n2c1	-4.0	-0.3	.	.	.
COc1ccc(C(=O)NCCCN(C)CCCNC(=O)c2ccc(OC)cc2)cc1	-4.4	-3.3	.	.	.

Additional results:
SMILES	Mtb bLac sens	RecA splice inh	Mtb H37Rv	Arbovirus inh	YopH PTP inh	others
C=CCn1c(O)c2ccc(C(=O)N=NC(=O)c3ccc(F)cc3)cc2c1O	-9.2	3.0	.	.	.
O=C(NNc1nc(Nc2ccccc2)nc(N2CCOCC2)n1)Nc1ccc(Cl)cc1	34.3	-0.3	?	-34.6	.
Cc1cccc(NC(=O)c2ccc3nsnc3c2)c1C	43.6	0.2	-2.3%	-5.1	.
CCOc1ccccc1-n1c(N)c(C(N)=O)sc1=S	?	4.0	-3.0%	0.0	6.2
O=C(Cc1ccc(Cl)cc1)NCc1ccccc1Cl	4.3	-0.5	12.1%	-7.5	.
COc1cc2c(cc1OC)C1C(C(=O)Nc3ccccc3N3CCN(C)CC3)c3ccccc3C(=O)N1CC2 (stereo unspecified)	-13.2	-6.3	-8.1%	1.7	.
O=[N+]([O-])c1cccc(-c2n[nH]c(=S)n2-c2ccccc2)c1	-2.2	0.8	-5.3%	.	.

Gathered by group: those above containing an aryl methoxy group (13)
SMILES	Mtb bLac sens	RecA splice inh	Mtb H37Rv	Arbovirus inh	YopH PTP inh	others
COc1ccc(OC)c(CC(=O)N2CCc3cc(OC)c(OC)cc3C2)c1	-4.2	2.4	.	.	.
COc1cc(NC(=O)c2cc(Br)cc(C)c2OC)ccc1NC(=O)C(C)C	9.9	2.2	5.4%	-4.2	.
COc1ccccc1N1C(=O)C2C3C=CC(C3)C2C1=O (stereo unspecified)	-11.6	1.4	-9.3%	-1.3	-44.2
COc1ccc(C2C(C(C)=O)=C(O)C(=O)N2CCO)c(OC)c1 (stereo unspecified)	-1.5	-0.7	-4.9%	2.3	-38.1
COc1cc(CNC2CCCCCC2)cc(OC)c1OC	-1.1	-1.8	-13.2%	5.3	-24.8
CCN1CCCC1CNC(=O)c1cc(NC(C)=O)c(N(C)C)cc1OC (stereo unspecified)	2.6	3.6	-11.2%	0.1	-28.0
COc1ccc(Oc2coc3cc(OC(=O)c4cncc(Br)c4)ccc3c2=O)cc1	-7.6	.	-12.3%	2.4	-46.4
COc1ccccc1OCc1ccc(C(=O)N(C)c2ccccc2)o1	-4.6	1.5	.	.	.
COc1cc(/C=N/Nc2nn3cnnc3c3ccccc23)cc(OC)c1OC	4.8	-6.8	4.0%	-0.3	-32.1
COCC(C)NC(=O)c1cc(-c2ccc(OC)c(OC)c2)on1 (stereo unspecified)	-1.3	0.7	-0.6%	5.2	4.7
COc1cc(O)c(C(CC(=O)N2CCOCC2)c2ccc(N(C)C)cc2)c(OC)c1 (stereo unspecified)	-0.2	-1.1	-8.1%	.	.
COc1ccc(C(=O)NCCCN(C)CCCNC(=O)c2ccc(OC)cc2)cc1	-4.4	-3.3	.	.	.
COc1cc2c(cc1OC)C1C(C(=O)Nc3ccccc3N3CCN(C)CC3)c3ccccc3C(=O)N1CC2 (stereo unspecified)	-13.2	-6.3	-8.1%	1.7	.
